High-throughput results (PubChem BioAssay)
FGF22 binding: FGF22 (human) thermal shift binding. 340,000 tested, 1.5% active. AID 651658. recombinant FGF22 thermal shift, SYPRO orange fluorescence; percent of sucrose octasulfate shift, DMSO zero. calls only at 9.99 µM;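 active means melting point raised past a set limit in the mean and every replicate; three in four hits are not shown here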
Target sequence (Q9HCT0 whole entry, looked up): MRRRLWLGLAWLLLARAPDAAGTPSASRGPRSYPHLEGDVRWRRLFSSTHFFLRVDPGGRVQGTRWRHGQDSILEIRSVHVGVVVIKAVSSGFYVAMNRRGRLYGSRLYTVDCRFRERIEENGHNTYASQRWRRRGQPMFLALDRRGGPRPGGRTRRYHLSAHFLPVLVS
AF4-AF9 inh: blocks AF4 peptide binding to human AF9. AlphaScreen, biotin-AF4 peptide binding to FLAG-AF9. inhibition, % at 10 µM. 350,000 tested, 0.47% active;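 active means every replicate reaching a set inhibition limit, whatever the replicate mean, cut at about 25% in these data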;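 further: 0% = plate neutral control median and 100% = total signal loss; the record names both 10 and 1 µM as test concentration; the first replicate is given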
Target sequence (P42568 whole entry, looked up): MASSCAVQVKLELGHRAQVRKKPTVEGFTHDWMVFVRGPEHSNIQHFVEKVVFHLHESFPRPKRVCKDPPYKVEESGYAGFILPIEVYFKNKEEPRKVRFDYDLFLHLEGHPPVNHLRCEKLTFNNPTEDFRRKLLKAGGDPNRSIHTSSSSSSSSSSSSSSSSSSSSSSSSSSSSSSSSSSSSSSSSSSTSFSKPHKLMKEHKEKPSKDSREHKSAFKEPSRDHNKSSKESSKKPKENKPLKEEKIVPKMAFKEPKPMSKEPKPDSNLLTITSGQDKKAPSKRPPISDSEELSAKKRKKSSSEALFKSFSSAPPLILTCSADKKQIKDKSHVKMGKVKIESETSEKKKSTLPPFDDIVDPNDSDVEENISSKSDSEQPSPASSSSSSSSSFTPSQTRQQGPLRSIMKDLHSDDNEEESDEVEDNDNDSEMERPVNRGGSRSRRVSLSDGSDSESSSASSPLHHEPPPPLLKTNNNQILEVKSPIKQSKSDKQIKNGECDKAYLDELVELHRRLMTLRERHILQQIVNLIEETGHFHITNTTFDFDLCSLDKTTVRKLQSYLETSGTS
Numbers without * were called inactive; i = inactive; + = active, no number. Some of the compounds tested. The share of hits here may be higher or lower than overall.

SMILES	FGF22 binding	AF4-AF9 inh
C[C@@H]1CN([C@@H](C)CO)C(=O)c2cccc(NC(=O)C3CCCCC3)c2O[C@@H]1CN(C)Cc1ccncc1	i	-2.2
CO[C@H]1CN(C)C(=O)c2cc(NC(C)=O)ccc2OC[C@H](C)N(CCc2ccccc2)C[C@H]1C	i	5.0
CO[C@H]1CN(C)C(=O)c2cc(NC(=O)NC(C)C)ccc2OC[C@H](C)N(C(=O)CC2CC2)C[C@H]1C	i	-12
C[C@@H]1CCCCO[C@H](CN(C)C(=O)Cc2ccccc2)[C@@H](C)CN([C@@H](C)CO)C(=O)c2cc(NC(=O)Cc3ccccc3)ccc2O1	i	6.0
C[C@H](CO)N1C[C@H](C)[C@@H](CN(C)C(=O)c2cccnc2)Oc2ncc(-c3ccccc3)cc2C1=O	i	-3.1
O=C(NCc1ccccc1F)[C@@H]1[C@@H](CO)[C@@H]2Cn3c(cccc3=O)[C@@H]2N1C(=O)CC1CC1	i	0.6
CCCCCCCCCCCCNC[C@@H]1CSCCS(=O)(=O)N1	i	-0.4
CN(C)CC(=O)N[C@H]1CC[C@H](CCn2cc(C3CCCC3)nn2)O[C@@H]1CO	i	-2.8
CO[C@H]1CN(C)C(=O)c2cc(NC(=O)Nc3cccc(F)c3)ccc2OC[C@@H](C)N(C(=O)Nc2c(C)noc2C)C[C@@H]1C	i	1.1
Cc1noc(C)c1NC(=O)N[C@H]1CC[C@@H](CC(=O)Nc2ccccc2)O[C@@H]1CO	i	-2.0
C[C@@H]1CN([C@@H](C)CO)C(=O)c2cc(NC(=O)Nc3ccc4c(c3)OCO4)ccc2O[C@@H](C)CCCCO[C@H]1CN(C)C(=O)Nc1ccccc1	i	0.5
Cc1ccc(-c2cnc3c(c2)C(=O)N([C@@H](C)CO)C[C@H](C)[C@H](CN(C)Cc2ccccc2C(=O)O)O3)cc1	i	-3.5
C[C@@H]1CN([C@@H](C)CO)C(=O)c2cccc(N(C)C)c2O[C@H]1CN(C)Cc1ccc2c(c1)OCO2	i	0.0
C[C@H](CO)N1C[C@H](C)[C@H](CN(C)C(=O)c2ccncc2)Oc2cc(C#CC3(O)CCCC3)ccc2S1(=O)=O	i	-1.8
CS(=O)(=O)N1[C@H](CO)[C@@H](c2ccccc2-c2ccc(F)cc2)[C@@H]1C#N	i	2.0
O=C(C[C@@H]1CC[C@@H]2[C@H](COC[C@@H](O)CN2Cc2cc(F)ccc2F)O1)N[C@H]1CCN(Cc2ccccc2)C1	i	3.9
O=C(NCC[C@H]1CC[C@@H](NS(=O)(=O)c2cccc(Cl)c2)[C@@H](CO)O1)c1cnccn1	i	-0.6
CCCN1[C@@H]2Cn3c(ccc(C4=CCCCC4)c3=O)[C@H]1[C@@H](C(=O)NCC)[C@@H]2CO	i	-2.3
Cc1noc(C)c1NC(=O)N(C)C[C@@H]1Oc2ncc(C#CC(C)(C)O)cc2C(=O)N([C@H](C)CO)C[C@@H]1C	i	-1.4
COc1ccccc1S(=O)(=O)N[C@@H]1C=C[C@H](CC(=O)N2CCN(C)CC2)O[C@@H]1CO	i	-0.2
COc1cccc(S(=O)(=O)Nc2ccc3c(c2)OC[C@@H](C)N(Cc2ccccc2F)C[C@@H](C)[C@H](OC)CN(C)C3=O)c1	i	2.9
C[C@@H]1CCCCO[C@@H](CN(C)Cc2ccncc2)[C@@H](C)CN([C@H](C)CO)C(=O)c2cc(NC(=O)Cc3ccccc3)ccc2O1	i	-8.1
C[C@@H]1CN([C@H](C)CO)C(=O)c2cc(NC(=O)Nc3ccc(C(F)(F)F)cc3)ccc2O[C@@H](C)CCCCO[C@H]1CN(C)C(=O)C1CCCCC1	i	0.2
COc1ccc2c3c(n(C)c2c1)[C@H](CO)N(Cc1cccnc1)CC31CCN(C(=O)c2cccnc2)CC1	i	2.2
COc1ccc(NC(=O)Nc2cccc3c2O[C@H](CN(C)C(=O)NC(C)C)[C@H](C)CN([C@H](C)CO)C3=O)cc1	i	0.3

Next part:
SMILES	FGF22 binding	AF4-AF9 inh
CCCC(=O)N1CC2(CN(C(=O)C3CCC3)C2)c2c(n(C)c3cc(OC)ccc23)[C@H]1CO	i	-0.9
CN1CCN(C(=O)C[C@H]2C=C[C@H](NC(=O)c3ccc4c(c3)OCO4)[C@H](CO)O2)CC1	+	-10
CCCN(C)C[C@H]1OCCCC[C@H](C)Oc2ccc(NS(=O)(=O)c3ccc(OC)cc3)cc2C(=O)N([C@H](C)CO)C[C@H]1C	i	1.8
C[C@H](CO)N1C[C@H](C)[C@H](CN(C)Cc2ccc(C(F)(F)F)cc2)Oc2ccc(NS(=O)(=O)c3cccs3)cc2CC1=O	i	-1.5
Cc1ccc(S(=O)(=O)Nc2ccc3c(c2)C(=O)N([C@H](C)CO)C[C@@H](C)[C@@H](CN(C)C)OCCCC[C@H](C)O3)cc1	i	-7.4
C[C@@H]1CCCCO[C@@H](CN(C)Cc2ccc3c(c2)OCO3)[C@H](C)CN([C@H](C)CO)C(=O)c2cc(NC(=O)c3ccccc3)ccc2O1	i	5.1
O=C(C[C@H]1C[C@H]2c3cc(NC(=O)c4cccnc4)ccc3O[C@H]2[C@H](CO)O1)NCc1cc(F)ccc1F	i	1.6
C[C@H]1CN([C@@H](C)CO)C(=O)c2cccc(NS(=O)(=O)c3ccccc3)c2O[C@@H]1CN(C)Cc1ccccc1	i	2.5
C[C@H](O)C#Cc1cnc2c(c1)C(=O)N([C@@H](C)CO)C[C@H](C)[C@H](CN(C)CC1CCCCC1)O2	i	1.8
C/C=C/c1ccc2c(c1)O[C@H](CN(C)C(=O)Nc1cc(F)ccc1F)[C@@H](C)CN([C@H](C)CO)S2(=O)=O	i	2.7
C[C@H](CO)N1C[C@H](C)[C@@H](CN(C)C(=O)Nc2ccc3c(c2)OCO3)Oc2ccc(NS(=O)(=O)c3cccs3)cc2CC1=O	i	-0.2
O=C(C[C@@H]1C[C@@H]2c3cc(NS(=O)(=O)c4ccc(F)cc4)ccc3O[C@@H]2[C@H](CO)O1)NC1CCCC1	i	-2.0
CN1c2ccc(C#Cc3ccc(F)cc3)cc2[C@H]2[C@H](CCN2S(=O)(=O)c2ccccc2F)[C@@H]1CO	i	6.3
CN(C)CC#Cc1ccc([C@@H]2[C@H]3CN(C(=O)c4ccc(F)cc4)CC(=O)N3[C@H]2CO)cc1	i	0.3
C/C=C/c1ccc2c(c1)O[C@@H](CN(C)C(=O)CN(C)C)[C@H](C)CN([C@@H](C)CO)S2(=O)=O	i	-2.0
Cc1ccc(S(=O)(=O)Nc2ccc3c(c2)C(=O)N([C@H](C)CO)C[C@@H](C)[C@H](CN(C)C(=O)NC(C)C)O3)cc1	i	-4.8
CO[C@H]1CN(C)C(=O)c2cc(NS(C)(=O)=O)ccc2OC[C@@H](C)N(C(=O)CN(C)C)C[C@@H]1C	i	-1.2
C[C@@H]1CN([C@H](C)CO)C(=O)c2cc(C3=CCCC3)cnc2O[C@@H]1CN(C)C	i	-3.2
C[C@H](O)C#Cc1ccc([C@@H]2[C@H]3CN(C(=O)c4ccc(F)cc4)CCCCN3[C@H]2CO)cc1	i	-4.2
O=C(C[C@H]1CC[C@H](NC(=O)Cc2ccccn2)[C@H](CO)O1)NCCc1ccncc1	i	-0.2
O=C(C[C@@H]1CC[C@@H]2[C@H](COC[C@@H](O)CN2Cc2ccccc2)O1)NCCc1ccccc1	i	0.1
O=C(NCC[C@@H]1CC[C@H](NC(=O)c2ccccc2F)[C@@H](CO)O1)c1ccc2c(c1)OCO2	i	0.2
C[C@H](CO)N1C[C@H](C)[C@@H](CN(C)Cc2ccncc2)Oc2ccc(NC(=O)Nc3ccc4c(c3)OCO4)cc2CC1=O	i	12
COc1ccc(S(=O)(=O)Nc2ccc3c(c2)C(=O)N([C@@H](C)CO)C[C@@H](C)[C@@H](CN(C)C(=O)NC2CCCCC2)OCCCC[C@@H](C)O3)cc1	i	2.1
CC(C)NC(=O)N[C@@H]1CC[C@H](CCn2cc(-c3ccc(F)cc3)nn2)O[C@@H]1CO	i	-2.3

Another view of 4 compounds above.
| mol | FGF22 binding | AF4-AF9 inh |
| --- | --- | --- |
| C[C@H](CO)N1C[C@H](C)[C@H](CN(C)Cc2ccc(C(F)(F)F)cc2)Oc2ccc(NS(=O)(=O)c3cccs3)cc2CC1=O | i | -1.5 |
| Cc1ccc(S(=O)(=O)Nc2ccc3c(c2)C(=O)N([C@H](C)CO)C[C@@H](C)[C@@H](CN(C)C)OCCCC[C@H](C)O3)cc1 | i | -7.4 |
| C[C@@H]1CCCCO[C@@H](CN(C)Cc2ccc3c(c2)OCO3)[C@H](C)CN([C@H](C)CO)C(=O)c2cc(NC(=O)c3ccccc3)ccc2O1 | i | 5.1 |
| O=C(C[C@H]1C[C@H]2c3cc(NC(=O)c4cccnc4)ccc3O[C@H]2[C@H](CO)O1)NCc1cc(F)ccc1F | i | 1.6 |

Sorted by number of heavy atoms (low to high): some entries from above
SMILES	FGF22 binding	AF4-AF9 inh
O=C(C[C@H]1CC[C@H](NC(=O)Cc2ccccn2)[C@H](CO)O1)NCCc1ccncc1	i	-0.2
O=C(NCC[C@@H]1CC[C@H](NC(=O)c2ccccc2F)[C@@H](CO)O1)c1ccc2c(c1)OCO2	i	0.2
CN1c2ccc(C#Cc3ccc(F)cc3)cc2[C@H]2[C@H](CCN2S(=O)(=O)c2ccccc2F)[C@@H]1CO	i	6.3

Next part.
SMILES	FGF22 binding	AF4-AF9 inh
Cc1ccc(S(=O)(=O)Nc2ccc3c(c2)C(=O)N([C@H](C)CO)C[C@H](C)[C@H](CN(C)Cc2ccc4c(c2)OCO4)O3)cc1	i	3.7
COc1ccc(NC(=O)N(C)C[C@H]2OCCCC[C@@H](C)Oc3ccc(NS(=O)(=O)c4cn(C)cn4)cc3C(=O)N([C@H](C)CO)C[C@H]2C)cc1	i	-4.1
COc1cccc(NC(=O)N2C[C@H](O)COC[C@@H]3O[C@@H](CC(=O)NC4CCC4)CC[C@H]32)c1	+	-9.3
O=C(NCC[C@@H]1CC[C@@H](NC(=O)C2CCCCC2)[C@@H](CO)O1)Nc1ccc(Cl)cc1	i	0.6
C[C@H]1CCCCO[C@H](CN(C)C(=O)NC2CCCCC2)[C@@H](C)CN([C@@H](C)CO)C(=O)c2cc(NC(=O)Nc3ccc(F)cc3)ccc2O1	i	0.9
O=C(NCC1CCCCC1)[C@@H]1[C@@H](CO)[C@@H]2Cn3c(ccc(-c4cncnc4)c3=O)[C@H]1N2	i	-0.7
COc1ccc(NC(=O)Nc2ccc3c(c2)C(=O)N([C@H](C)CO)C[C@H](C)[C@@H](CN(C)Cc2ccc4c(c2)OCO4)OCCCC[C@H](C)O3)cc1	i	13
Cc1noc(C)c1NC(=O)NCC[C@H]1CC[C@@H](NC(=O)Cc2cccnc2)[C@@H](CO)O1	i	3.4
C[C@H](CO)N1C[C@H](C)[C@@H](CN(C)Cc2ccc(-c3ccccc3)cc2)Oc2c(NC(=O)NC3CCCCC3)cccc2C1=O	i	1.1
C[C@H]1CN([C@@H](C)CO)C(=O)c2ccccc2-c2ccccc2CO[C@H]1CN(C)Cc1cccnc1	i	-3.9
C[C@@H]1CN([C@@H](C)CO)C(=O)c2cc(NC(=O)CCC(F)(F)F)ccc2O[C@H]1CN(C)C(=O)Nc1ccc(F)cc1	i	-1.6
Cc1noc(C)c1S(=O)(=O)Nc1ccc2c(c1)C(=O)N([C@@H](C)CO)C[C@H](C)[C@H](CN(C)Cc1ccc(C(=O)O)cc1)O2	i	-1.9
CO[C@H]1CN(C)C(=O)c2ccc(NC(C)=O)cc2OC[C@H](C)N(S(C)(=O)=O)C[C@@H]1C	i	-3.6
C[C@H](NC(=O)C[C@@H]1CC[C@H](NC(=O)Cc2ccccn2)[C@@H](CO)O1)c1ccccc1	i	0.2
CO[C@@H]1CN(C)C(=O)c2cc(NC(=O)c3cc(C)on3)ccc2OC[C@H](C)NC[C@@H]1C	i	-2.4
C[C@H]1CN([C@@H](C)CO)C(=O)c2cccc(NC(=O)NC3CCCCC3)c2O[C@H]1CN(C)Cc1ccccc1	i	-0.2
N#C[C@@H]1[C@H](c2ccccc2)[C@H](CO)N1S(=O)(=O)c1ccc(-c2ccccc2)cc1	i	-2.0
O=C(C[C@@H]1C=C[C@@H](NC(=O)Nc2ccc(F)cc2)[C@H](CO)O1)NCCN1CCCC1	i	4.9
C[C@@H]1CN([C@@H](C)CO)C(=O)c2cccc(NC(=O)c3cnccn3)c2O[C@H]1CN(C)C(=O)NC1CCCCC1	i	0.2
COc1ccc(NC(=O)Nc2ccc3c(c2)C(=O)N([C@@H](C)CO)C[C@@H](C)[C@@H](CN(C)C(=O)Nc2ccc(F)cc2)O3)cc1	i	-2.6
O=C(C[C@@H]1C=C[C@H](NS(=O)(=O)c2ccc(F)cc2)[C@H](CO)O1)NC1CCC1	i	-3.0
O=C(C[C@@H]1C[C@H]2c3cc(NC(=O)Cc4ccncc4)ccc3O[C@H]2[C@@H](CO)O1)NCc1cccc(F)c1	i	3.2
C[C@@H]1CN([C@@H](C)CO)C(=O)Cc2cc(NS(=O)(=O)c3ccc(F)cc3)ccc2O[C@H]1CN(C)Cc1ccc(C(=O)Nc2ccccc2N)cc1	i	-27
C[C@@H]1CCCCO[C@@H](CN(C)C(=O)C2CCCCC2)[C@@H](C)CN([C@@H](C)CO)C(=O)c2cc(NS(=O)(=O)c3ccc(Cl)cc3)ccc2O1	i	6.6
CCNC(=O)C[C@@H]1CC[C@@H]2[C@H](COC[C@H](O)CN2C(=O)Nc2ccc3c(c2)OCO3)O1	i	0.4
C[C@@H]1CN([C@@H](C)CO)C(=O)Cc2cc(NC(=O)Nc3ccc(F)cc3)ccc2O[C@@H]1CN(C)Cc1ccc(Oc2ccccc2)cc1	i	-0.3
CC(C)CC#Cc1cnc2c(c1)C(=O)N([C@@H](C)CO)C[C@H](C)[C@@H](CN(C)C(=O)Cc1ccccc1)O2	i	-0.1

Record cards, from the list above. Screens in order: FGF22 binding	AF4-AF9 inh
CO[C@H]1CN(C)C(=O)c2ccc(NC(C)=O)cc2OC[C@H](C)N(S(C)(=O)=O)C[C@@H]1C in the list: i	-3.6
C/C=C/c1ccc2c(c1)O[C@H](CN(C)C(=O)Nc1cc(F)ccc1F)[C@@H](C)CN([C@H](C)CO)S2(=O)=O in the list: i	2.7
